Biofilm kill mix: mixture kills Candida albicans biofilm cells; AID 1242; inhibition, % at 7.6 µM; C. albicans biofilm persisters + clotrimazole, fluorescence viability; primary screen in compound mixtures of four per well; 120,000 tested, 0.02% active;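 active = inhibition above 30.3% in the primary screen of four-compound pools, then above 30% when the compound was retested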;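 note: compounds exposed to preformed 24 h biofilms for 48 h; the number belongs to the whole pool; some results filed as inactive read as strong as hits; inactives centre near 12; 0% = biofilm with clotrimazole alone and 100% = kill control; retested singly at about 60 µM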
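System: C. albicans CAF4-2 wild-type biofilms; Medium: RPMI/MOPS medium, pH 7.0; Reagent: Clotrimazole, 50 µg/mL; Times: biofilm formation 24 h, compound exposure 48 h, 37 °C; Detection: 2-h Alamar Blue fluorescence, 535/590 nm excitation/emission; Evaluation: percent inhibition of biofilm viability.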
Numbers without * were called inactive. Only part of the results is shown. The share of hits here may be higher or lower than overall.

| mol | Biofilm kill mix |
| --- | --- |
| CCOC(=O)CSc1nc(C)c2cc(C)c(C)cc2n1 | 18 |
| Cc1cc(=O)oc2cc(OCC(=O)OC(C)C(=O)NC3CCCC3)ccc12 (configuration not stated) | 11 |
| C/C=C(/C)C(=O)Nc1cccc(C2=NOC3(C2)C[C@@H](C(N)=O)N(C(=O)[C@H]2CCC(=O)N2)C3)c1 (some centres not stated) | 14 |
| Cc1ccccc1OCC(=O)OCC(=O)c1ccc(OCc2ccccc2)cc1 | 18 |
| CCOC(=O)/C=C/C(=O)OCC(=O)Nc1ccc(OC)c(Cl)c1 | 14 |
| COc1ccc(C(=O)N[C@H](C(=O)Nc2nc3c(s2)CCCC3)C(C)C)cc1 | 14 |
| O=C(Nc1nc2ccccc2[nH]1)C1CC1 | 8 |
| CCCCNc1nnc(SCC(=O)c2c[nH]c3ccccc23)s1 | 12 |
| Cc1cc(C)nc(NC(=O)c2cc(-c3ccc(C)s3)nc3ccccc23)c1 | 12 |
| COc1ccc(CCNC(=O)CSc2ccccc2)cc1OC | 16 |
| N#CC1=C(N)SC(N)=C(C#N)C1c1ccc([N+](=O)[O-])cc1 | 4 |
| COc1cc(NC(=O)CSc2nncn2C)cc(OC)c1OC | 7 |
| COc1ccc(COc2cc(-c3cccc(OC)c3)nc3ccc(NC(=O)c4ccc(OC)cc4)cc23)cc1 | 18 |
| CNC(=S)Nc1ccc(C)c(NC(=S)NC)c1 | 9 |
| Cc1[nH][nH]c(=O)c1C(c1ccc(-c2ccc(Cl)c(C(=O)O)c2)o1)c1c(C)[nH][nH]c1=O | 15 |

Part of the list above, field by field:
SMILES: Cc1cc(=O)oc2cc(OCC(=O)OC(C)C(=O)NC3CCCC3)ccc12 (configuration not stated)
  Biofilm kill mix = 11

SMILES: COc1ccc(C(=O)N[C@H](C(=O)Nc2nc3c(s2)CCCC3)C(C)C)cc1
  Biofilm kill mix = 14

SMILES: CCOC(=O)/C=C/C(=O)OCC(=O)Nc1ccc(OC)c(Cl)c1
  Biofilm kill mix = 14

SMILES: CNC(=S)Nc1ccc(C)c(NC(=S)NC)c1
  Biofilm kill mix = 9

The listing picks up with the 5 entries that preceded the break.
| mol | Biofilm kill mix |
| --- | --- |
| N#CC1=C(N)SC(N)=C(C#N)C1c1ccc([N+](=O)[O-])cc1 | 4 |
| COc1cc(NC(=O)CSc2nncn2C)cc(OC)c1OC | 7 |
| COc1ccc(COc2cc(-c3cccc(OC)c3)nc3ccc(NC(=O)c4ccc(OC)cc4)cc23)cc1 | 18 |
| CNC(=S)Nc1ccc(C)c(NC(=S)NC)c1 | 9 |
| Cc1[nH][nH]c(=O)c1C(c1ccc(-c2ccc(Cl)c(C(=O)O)c2)o1)c1c(C)[nH][nH]c1=O | 15 |
| Oc1ccc(C[C@H]2CNC(=S)N2CCc2cc(C(F)(F)F)cc(C(F)(F)F)c2)cc1 | 21 |
| CC(=O)Nc1cccc(C(=O)Nc2nc(C)cs2)c1 | -6 |
| Cc1ccc(C)c(NC(=S)c2nc3ccccc3s2)c1 | 17 |
| O=C(COC(=O)COc1ccccc1Cc1ccccc1)Nc1cccnc1Cl | 9 |
| CCOc1ccc2nc(N/C(N)=N/C(=S)Nc3cccc(OC)c3)nc(C)c2c1 | 19 |
| CC(NC(=O)C(=O)N/N=C/c1ccc(Cl)cc1)c1ccccc1 (configuration not stated) | -3 |
| Cc1cc(=O)n(C(NC(=O)c2ccccc2)C(=O)c2ccccc2)cn1 (configuration not stated) | 23 |
| Cc1ccccc1C(=O)NC1CCN(C(=O)Nc2ccccc2Cl)CC1 | 34 |
| Cc1cc(-c2ccccc2)nc2oc3c(c12)NC(=O)CN(c1ccccc1)C3=O | 4 |
| O=C(c1ccc(COc2c(F)c(F)c(F)c(F)c2F)o1)N1CCN(Cc2ccc3c(c2)OCO3)CC1 | 8 |
| COCCNC(=O)C(c1ccc(C)o1)N(C(=O)Cn1nnc2ccccc21)c1ccccc1 (configuration not stated) | 9 |
| O=C(CNc1ccccc1)NN=C1CCCC1 | 7 |
| COc1ccc(OC)c(/C=N/NC(=O)CNC(=O)c2ccc(S(=O)(=O)N3CCCC3)cc2)c1 | 14 |
| CCC(C)c1ccccc1OCCCCN1CCCC1 (configuration not stated) | 6 |
| CC(=O)Nc1ccc(CN2CCN(CCc3ccccc3)C(CCO)C2)cc1 (configuration not stated) | -7 |
| CCN(CC)CCN(Cc1cc2cc(C)ccc2[nH]c1=O)C(=S)NCc1ccco1 | 18 |
| O=C(/C=C/c1cccs1)Nc1ccc(Br)cn1 | -3 |
| O=C(N=Nc1c(O)n(Cc2ccccc2)c2ccccc12)c1cc2ccccc2cc1O | 20 |
| O=C(/C=C/c1ccncc1)c1ccc(NC(=O)c2ccccc2F)cc1 | 14 |
| Cc1nc2ccccc2c(=O)n1/N=C/c1cccs1 | 3 |
| Cn1c(CNC(=O)c2ccccc2F)nnc1SCC(=O)NCc1ccccc1 | 14 |
| NC(=O)NC(=O)COC(=O)/C=C/c1cccc(Br)c1 | 4 |
| CCN(C(=O)COC(=O)c1cc([N+](=O)[O-])ccc1N1CCCCC1)C1CCS(=O)(=O)C1 (configuration not stated) | 7 |
| C#CCN1C(=O)S/C(=C/c2cc(C)n(CC)c2C)C1=O | 17 |
| CC1(C)CC(=O)C(c2c[nH]c3ccccc23)C(=O)C1 | 18 |
| COc1ccc(CN2C3CCCC2CC(NC(=O)/C=C/c2ccccc2)C3)cc1 (configuration not stated) | 3 |
| CNc1ccccc1C(C)(C)c1ccn[nH]1 | -16 |
| O=C(OC1CCOC1=O)c1cc(-c2cccs2)nc2ccccc12 (configuration not stated) | 0 |
| CCCCCCCc1c(C#N)c(N)[nH]c(=S)c1C#N | 12 |
| O=C(c1ccc2ccccc2c1)C1CCCN(C(=O)c2noc3c2CCCC3)C1 (configuration not stated) | 13 |

Entries listed so far containing a cyano group (2):
| mol | Biofilm kill mix |
| --- | --- |
| N#CC1=C(N)SC(N)=C(C#N)C1c1ccc([N+](=O)[O-])cc1 | 4 |
| CCCCCCCc1c(C#N)c(N)[nH]c(=S)c1C#N | 12 |

Grouped by structure: the entries above containing fluorine.
| mol | Biofilm kill mix |
| --- | --- |
| Oc1ccc(C[C@H]2CNC(=S)N2CCc2cc(C(F)(F)F)cc(C(F)(F)F)c2)cc1 | 21 |
| O=C(c1ccc(COc2c(F)c(F)c(F)c(F)c2F)o1)N1CCN(Cc2ccc3c(c2)OCO3)CC1 | 8 |
| O=C(/C=C/c1ccncc1)c1ccc(NC(=O)c2ccccc2F)cc1 | 14 |
| Cn1c(CNC(=O)c2ccccc2F)nnc1SCC(=O)NCc1ccccc1 | 14 |

Going on with the list:
compound	Biofilm kill mix
C#CCSc1ncc(-c2ccccc2)cn1	9
COC(=O)C1=C(C)NC(=O)NC1c1ccc(N2CCC(c3ccccc3)=N2)cc1 (configuration not stated)	3
CC(C)NC(=O)NC(=O)COC(=O)c1ccc([N+](=O)[O-])cc1Cl	11
CCC(=O)c1ccc(N2CCN(S(=O)(=O)c3ccccc3)CC2)c(F)c1	27
CCOc1ccc(C(=O)NCC(=O)OCc2cc(C(C)=O)ccc2OC)cc1	15
Cc1ccc(C(=O)OCC(=O)c2c[nH]c3ccccc23)cc1	8
CCn1ccnc1CN1CCC(CO)(CCOc2ccccc2)CC1	17
N#CCc1ccc(OC(=O)c2cccnc2)cc1	19
CC(C)CC(=O)Nc1nc2ccc(S(C)(=O)=O)cc2s1	27
O=C(CCC1CCCN(c2ncccn2)C1)NCc1ccc(F)c(F)c1 (configuration not stated)	23
COC1CC(C)NC(=S)N1 (configuration not stated)	13
CC1(C)Cc2cccc(OCC(=O)NCCOc3ccccc3)c2O1	9
COc1ccc(S(=O)(=O)N(C)C)cc1NC(=O)COC(=O)c1nc2nccc(C)n2n1	1
COc1ccc(CCN2CC(C(=O)Nc3ccc4c(c3)OCO4)CC2=O)cc1OC (configuration not stated)	7
Cc1cc(N/N=C/c2cccc([N+](=O)[O-])c2)nc(-n2nc(C)cc2C)n1	24
Cc1oc(-c2ccccc2)nc1C(=O)N1CCN(c2ccc(F)cc2)CC1	-13
c1ccc2sc(SCSc3nc4ccccc4s3)nc2c1	12
O=c1cc(CSc2n[nH]c(-c3ccncc3)n2)nc2sccn12	7
Cc1cc(C)cc(NC(=S)N(CCN(C)C)Cc2cccs2)c1	3
Cc1[nH]c2ccccc2c1-c1ccc(Cl)nn1	10
COc1ccc(/C=N/OCC(=O)N=Nc2c(O)[nH]c3ccc(Br)cc23)cc1OC	10
N#CC1(c2ccccc2)CCC(=O)N1c1ccccc1 (configuration not stated)	-1
N#Cc1cn(CCCOc2ccccc2)c2ccccc12	12
Cc1nc(-c2ccc(C(=O)Nc3cccc(Br)c3)cc2)cs1	11
CC1CCCC(C)N1C(=O)COc1ccccc1F (configuration not stated)	10
Cc1ccc2nc3c(c(C(=O)OC4CCOC4=O)c2c1)CCCC3 (configuration not stated)	8
COc1cc(NC(=O)Cn2c(=O)n(-c3cccc(C)c3)c(=O)c3c(C)c(C)sc32)cc(OC)c1	12
CCCC(c1nnnn1C(C)(C)C)N1CCN(Cc2ccccc2)CC1 (configuration not stated)	25
O=C(O)COc1ccccc1/C=C1\SC(=S)N(/N=C/c2ccccc2O)C1=O	13
O=C(CSc1nnnn1-c1ccc(O)cc1)c1cc2ccccc2o1	13
O=P(Cc1cc(Br)cc(Br)c1OCCO)(c1ccccc1)c1ccccc1	21
CC(C)CC1CCCCC1OC(=O)C[N+]1(C)CCCCC1 (configuration not stated)	11
C/C(=N/NC(=O)c1ccc(C)nc1)c1ccc2c(c1)CCCC2	19
Cc1nonc1OCCNCCNc1ccccc1[N+](=O)[O-]	6
O=C(CNC(=O)c1ccccc1)OCc1nnc(-c2ccc(Cl)cc2)o1	9
O=C(CCN1CCOCC1)N/N=C/c1cc(Br)cc(Br)c1O	6
O=C(O)c1cc2ncc(CCO)cn2n1	14
O=C(N/N=C/c1cccc(Oc2ccccc2)c1)c1cc[n+]([O-])cc1	10
COc1ccc(/C=N\NC(=O)c2cccc(Br)c2)c(OC)c1	14
COc1ccc(-c2csc(NC(=S)NC(=O)c3ccco3)n2)cc1	5
O=C(C1=C[C@@H](c2coc3ccccc3c2=O)C[C@@H](OCc2ccc(CO)cc2)O1)N1CCOCC1	13
O=C(N/N=C/C=C/c1ccccc1[N+](=O)[O-])c1cc(-c2ccccc2)n[nH]1	14
CN(Cc1ccccc1)C(=O)c1nc2ccccn2c1CN1CCc2sccc2C1	3
CCn1nnnc1NCc1ccc(OCc2c(F)cccc2Cl)c(OC)c1	10
CCOC(=O)/C=C(\C)N1N=C(c2ccccc2)CC1c1ccccc1 (configuration not stated)	14
CC(C)/C=C/C(=O)N1CCC(N2CCC(C(=O)N3CCOCC3)CC2)CC1	6
COc1cccc(OCc2nnc(-c3cccs3)o2)c1	12
CCOP(=O)(c1ccccc1)C(O)c1ccc(Br)cc1 (configuration not stated)	25
Cc1ccc(-c2csc(Nc3ccc(C(=O)O)cc3)[n+]2Cc2ccccc2)cc1	14
COc1ccc(NC(=O)O/N=C/c2ccccc2Cl)cc1	10

Going on with the list.
compound	Biofilm kill mix
Cc1nnsc1C(=O)Nc1ccc(Cl)cc1	9
Cc1ccc(-c2nc3cc(Br)cnc3nc2-c2ccc(C)cc2)cc1	14
Cc1occc1C(=O)N/N=C/c1ccccc1[N+](=O)[O-]	-5
N#Cc1ccc(OCC(=O)N/N=C2/CC(c3ccccc3)Oc3ccccc32)cc1 (configuration not stated)	7
CCOc1ccc(C(=O)N/N=C/c2cc([N+](=O)[O-])cs2)cc1	10
C/C(=N\Nc1ncc(Cl)cc1Cl)c1ccc2c(c1)OCO2	9
Cc1ccccc1NC1=NC(=S)N(c2ccccc2)C12CCCCC2	9
O=C(OCC(=O)c1ccccc1Cl)c1cnccn1	-4
CCn1c(SCC(=O)N/N=C\c2ccccc2OCC(=O)O)nnc1-c1ccc(Cl)cc1	21
O=C(CSCc1nc2ccccc2[nH]1)Nc1ccc(Oc2ccccc2)cc1	12
CCOC(=O)c1sc(Nc2nc3c(OC)cccc3s2)cc1C	10
O=C(CSCc1ccc(F)cc1)NCc1cccs1	20
Cc1cc(NC(=O)CSc2nnnn2-c2ccccc2)no1	14
CNc1nnc(-c2ccco2)s1	17
COc1ccc(C(=O)/C=C2/c3ccccc3CC(C)(C)N2C)cc1OC	5
CCOC(=O)N1CCN(C(=S)NC(=O)c2nn(C)cc2Br)CC1	18
COc1ccc(C/C(C)=N/NC(=O)c2ccc(Cl)cc2)cc1	15
N=C1c2c(cc(=O)n3c2[nH]c2ccccc23)CN1CCN1CCOCC1	26
Cc1cc(C(=O)c2ccc(C(C)(C)C)cc2)c(NC(=O)CCl)s1	20
S=C1NCCOCCOCCOCCNC(=S)N2CCOCCOCCN1CCOCCOCC2	16
Oc1c(Br)cc(Br)cc1/C=N/N1CCN(Cc2ccccc2)CC1	14
CCOC(=O)NC(NC(=S)Nc1ccc(OCC)cc1)C(Cl)(Cl)Cl (configuration not stated)	10
CCC(C)OC1OC(CO)C(O)C(O)C1NC(C)=O (configuration not stated)	9
O=C1CC2(CCCC2)C(=O)N1c1ccc(S(=O)(=O)NCC2CC2)cc1Cl	13
O=C(COC(=O)c1ccc(NS(=O)(=O)c2cccs2)cc1O)NCc1ccccc1	-2
Cc1c2n(c3ccccc13)CC/C2=N\O	17
N#C/C(=C/c1ccncc1)c1nc2ccccc2s1	3
CCCc1cc2c(=O)c(-c3ccccn3)c(C)oc2cc1O	-9
